MLL AF4-AF9 inh – inhibitors of AF4 peptide binding to AF9, primary screen, biochemical, AlphaScreen, biotin-AF4 peptide, FLAG-AF9, single point; Protein AF-9 (Homo sapiens), P42568; inhibition, % at 10 µM; 0.47% of 350,000 active; AID 651704, 2012;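 active = every replicate reaching a set inhibition limit, whatever the replicate mean, cut at about 25% in these data; inconclusive = mean inhibition reaches that limit but some replicates miss it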;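 also: 0% = plate neutral control median and 100% = total signal loss; the record names both 10 and 1 µM as test concentration; the first replicate is given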
Target sequence (P42568 whole entry, looked up): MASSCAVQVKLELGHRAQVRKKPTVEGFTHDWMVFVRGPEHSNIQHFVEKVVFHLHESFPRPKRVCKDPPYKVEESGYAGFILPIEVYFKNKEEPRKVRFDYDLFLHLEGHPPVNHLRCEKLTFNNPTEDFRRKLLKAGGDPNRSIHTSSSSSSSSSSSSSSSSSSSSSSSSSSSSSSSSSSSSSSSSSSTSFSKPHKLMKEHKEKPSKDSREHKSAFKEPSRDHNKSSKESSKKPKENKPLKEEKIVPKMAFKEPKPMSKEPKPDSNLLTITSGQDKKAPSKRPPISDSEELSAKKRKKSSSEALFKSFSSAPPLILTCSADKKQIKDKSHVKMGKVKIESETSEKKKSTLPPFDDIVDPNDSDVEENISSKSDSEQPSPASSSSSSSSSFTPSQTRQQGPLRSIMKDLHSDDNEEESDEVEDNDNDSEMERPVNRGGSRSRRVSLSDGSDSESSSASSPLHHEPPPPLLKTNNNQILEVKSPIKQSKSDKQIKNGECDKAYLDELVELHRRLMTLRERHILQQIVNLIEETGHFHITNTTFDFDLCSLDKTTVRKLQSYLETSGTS
FGF22 binding – binders of human FGF22 protein, primary screen, FGF22 synaptogenesis inhibitor project, biophysical, thermal shift, single point | calls only at 9.99 µM | AID 651658, 2012 | Fibroblast growth factor 22 (Homo sapiens), Q9HCT0 | recombinant FGF22 thermal shift, SYPRO orange fluorescence; percent of sucrose octasulfate shift, DMSO zero | 1.5% of 340,000 active;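 active = melting point raised past a set limit in the mean and every replicate; inconclusive = no clear call; three in four hits are not shown here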
Target sequence (Q9HCT0 whole entry, looked up): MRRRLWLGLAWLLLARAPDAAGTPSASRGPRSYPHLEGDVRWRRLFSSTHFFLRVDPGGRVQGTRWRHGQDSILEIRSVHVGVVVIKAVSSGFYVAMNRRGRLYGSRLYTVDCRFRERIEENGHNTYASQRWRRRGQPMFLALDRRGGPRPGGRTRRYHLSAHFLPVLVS
E coli growth – E. coli growth inhibition, primary screen, OD600. 0.21% of 330,000 active. Escherichia coli growth, 23 h; stronger effect = lower value. OD600 absorbance (no concentration beside the values);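 active = OD600 absorbance below the run mean of sample wells minus 3.6 SD, in any replicate, cut at about 0.56 in these data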;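 also: stock transfer was 300 nL into about 60 µL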
Vif TR-FRET – inhibitors of Vif binding to APOBEC3G peptide, primary screen, biochemical, TR-FRET, GST-Vif 1-94, biotin-A3G peptide, dose response retest (AID 1117319). Virion infectivity factor (Human immunodeficiency virus type 1 group M subtype B (isolate …. TR-FRET GST-Vif / biotin-A3G peptide binding; higher % means a stronger effect; test concentration not given here; strong numbers were not always called active. inhibition, %, or IC50 in µM where a hit was titrated. 0.57% of 260,000 active;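 active = above the screen mean plus three standard deviations and confirmed in dose response; inconclusive = results disagree or hit not tested in dose response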;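 also: Vif residues 1-94 fused to GST binding biotinylated APOBEC3G peptide 110-148; 0% = full assay without inhibitor and 100% = GST in place of GST-Vif; retest series ran down from 100 µM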
rRNA inh HTS – reduced GFP signal of wild-type E. coli, primary screen, bacterial rRNA inhibitor project, GFP/RFP fluorescence, OD600, single point. E. coli WT GFP vs humanized-ribosome RFP mutants, 24 h; stronger effect = lower value; DMSO median 0, no signal -100. GFP signal change (wild-type ribosome), % (concentration not given with the values). 1.6% of 350,000 active. AID 720706, 2013;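 active = significant combined selectivity score with lowered wild-type GFP, culture density cut under 30%, mutant RFP and density less affected; inactive = any of these conditions unmet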; also: one replicate is shown; some compounds called inactive have numbers as strong as hits
HNF4A DNA FP – change in binding of human HNF4A to DNA, primary screen, biochemical, fluorescence polarization, FITC-DNA; 0.3% of 360,000 active; activity change, % at 10 µM; 1 h; AID 1224865, 2016; in the data active = activity change above about 30%, passing the limit was not always enough;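 also: controls were the assay level and a saturating level of protein; the project sought stronger binding though the title names inhibitors; some compounds called inactive have numbers as strong as hits; positive values seem to mean higher polarization but the record does not say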
ALR H2O2 inh – inhibitors of human ALR sulfhydryl oxidase, primary screen, biochemical, H2O2 detection, HRP-luminol luminescence, single point; FAD-linked sulfhydryl oxidase ALR (Homo sapiens), P55789; purified ALR, DTT oxidation; inhibition, % (no concentration beside the values); 3.8% of 290,000 active;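 active = mean and each replicate at 75% or more; inconclusive = only one of the two met; inactive = neither met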;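 also: stock transfer was 7.5 nL into about 7.5 µL; 0% = neutral wells and 100% = wells with inactivated enzyme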
Target sequence (P55789 whole entry, looked up): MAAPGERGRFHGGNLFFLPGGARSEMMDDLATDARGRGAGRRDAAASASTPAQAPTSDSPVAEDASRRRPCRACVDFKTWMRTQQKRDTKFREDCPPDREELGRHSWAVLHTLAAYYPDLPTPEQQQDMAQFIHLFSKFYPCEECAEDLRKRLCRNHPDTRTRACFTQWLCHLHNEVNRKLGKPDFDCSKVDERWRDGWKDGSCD
rRNA inh HTS OD600 – recorded beside rRNA inh HTS, whose call it bears; OD600 change, %; measured here: OD600 growth;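 optical density of the mix in the first replicate; 0 = DMSO median and -100 = no signal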
rRNA inh HTS RFP – further read-out of rRNA inh HTS, marked with its call; RFP signal change, %; measured here: RFP humanized mutant strains;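 first replicate; 0 = DMSO median and -100 = no signal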
The depositor's hits bear a star. These rows are one share of the data, so the mix of outcomes need not match the whole.

Screening CCC(C(=O)Nc1ccc(OC)c(Cl)c1)c1ccccc1 (centres undefined) returned MLL AF4-AF9 inh -24.9, FGF22 binding inactive, E coli growth 0.697, rRNA inh HTS -22.5, HNF4A DNA FP -0.9, rRNA inh HTS OD600 -29.1 and rRNA inh HTS RFP -16.4.
`COc1ccc(CNC(=O)CN(C(=O)CCC(=O)Nc2ccccn2)c2ccc3c(c2)OCO3)cc1` gave MLL AF4-AF9 inh -3.5, FGF22 binding inactive, E coli growth 0.672, Vif TR-FRET 0.8%, rRNA inh HTS -5.9, HNF4A DNA FP 0.8, ALR H2O2 inh -0.5, rRNA inh HTS OD600 -11.1 and rRNA inh HTS RFP 1.9.
`Cc1cc(C)c(C)c(S(=O)(=O)NCc2cccnc2)c1C` gave MLL AF4-AF9 inh -13.7, FGF22 binding inactive, E coli growth 0.675, Vif TR-FRET 3.5%, rRNA inh HTS 0.4, HNF4A DNA FP -1.5, ALR H2O2 inh -0.2, rRNA inh HTS OD600 0.8 and rRNA inh HTS RFP -7.0.
For C[C@@H]1CN([C@H](C)CO)C(=O)c2cc(-c3ccncc3)cnc2O[C@H]1CN(C)S(=O)(=O)c1ccc(F)cc1 the results were MLL AF4-AF9 inh -1.4, FGF22 binding inactive, rRNA inh HTS -3.7, rRNA inh HTS OD600 3.9 and rRNA inh HTS RFP -2.9.
Screening COCCN(C(=S)Nc1cccc(OC)c1)C(C)c1cccs1 (centres undefined) returned MLL AF4-AF9 inh -3.3, FGF22 binding inactive, E coli growth 0.716, Vif TR-FRET 13.0%, HNF4A DNA FP 0.7 and ALR H2O2 inh -2.5.
`CC1=CC(C)(C)N(C(=O)CSc2nnc(N)s2)c2c(C)cc(C)cc21` gave E coli growth 0.644, Vif TR-FRET -7.3% and HNF4A DNA FP 1.7.
Screening Cc1noc(C)c1S(=O)(=O)N(CC(=O)Nc1ccc2c(c1)OCO2)c1ccc(C(C)C)cc1 returned MLL AF4-AF9 inh 2.5, FGF22 binding inactive, E coli growth 0.763, Vif TR-FRET 0.2%, rRNA inh HTS 7.4, HNF4A DNA FP 0.5, rRNA inh HTS OD600 8.9 and rRNA inh HTS RFP 5.1.
`COc1ccccc1Nc1nnc(SCC(=O)c2c(N)n(C3CC3)c(=O)[nH]c2=O)s1` gave MLL AF4-AF9 inh 3.1, FGF22 binding inactive, E coli growth 0.671, Vif TR-FRET -1.6%, rRNA inh HTS 8.1, HNF4A DNA FP -1.7, ALR H2O2 inh 1.5, rRNA inh HTS OD600 10.5 and rRNA inh HTS RFP 1.4.
O=C(C[C@H]1CC[C@H]2[C@@H](COC[C@H](O)CN2C(=O)Nc2ccc(Cl)cc2)O1)NCCc1ccncc1 was read as MLL AF4-AF9 inh -1.5, FGF22 binding inactive, rRNA inh HTS -57.2, rRNA inh HTS OD600 -71.2 and rRNA inh HTS RFP -18.8.
For CN1C(=O)NC(c2cccc(O)c2)C(C(=O)c2cccs2)C1(O)C(F)(F)F (centres undefined) the results were E coli growth 0.56, Vif TR-FRET 23.1%, HNF4A DNA FP -0.1 and ALR H2O2 inh 0.8.
For Cc1c(N=Cc2nc3ccccc3n2C)c(=O)n(-c2ccccc2)n1C the results were E coli growth 0.628, Vif TR-FRET 8.3%, rRNA inh HTS 23.6, HNF4A DNA FP 0.6, ALR H2O2 inh 2.5, rRNA inh HTS OD600 13.4 and rRNA inh HTS RFP -2.7.
For COc1ccc(NC(=O)/C(C#N)=C\c2cc(C)n(-c3ccc4c(c3)OCO4)c2C)cc1 the results were MLL AF4-AF9 inh 4.0, FGF22 binding inactive, E coli growth 0.715, Vif TR-FRET 8.0%, rRNA inh HTS -1.1, HNF4A DNA FP -0.9, ALR H2O2 inh -4.8, rRNA inh HTS OD600 1.6 and rRNA inh HTS RFP 18.6.
For CS(=O)(=O)N1CC(=O)N2[C@H](CO)[C@@H](c3ccc(C#CCC4CCCC4)cc3)[C@@H]2C1 the results were MLL AF4-AF9 inh 5.1, FGF22 binding inactive, rRNA inh HTS -16.4, rRNA inh HTS OD600 -32.5 and rRNA inh HTS RFP 6.5.
Screening CC(C)NC(=O)Cn1cc(C(=O)C(=O)N2CCOCC2)c2ccccc21 returned MLL AF4-AF9 inh 0.9, FGF22 binding inactive, E coli growth 0.711, rRNA inh HTS 1.4, HNF4A DNA FP -2.4, ALR H2O2 inh 2.7, rRNA inh HTS OD600 10.2 and rRNA inh HTS RFP 0.3.
CS(=O)(=O)c1ccccc1-c1nnc(-c2ccc(Cl)cc2)o1 was read as MLL AF4-AF9 inh -2.9, FGF22 binding inactive, E coli growth 0.697, Vif TR-FRET 5.2%, rRNA inh HTS -17.4, HNF4A DNA FP -1.2, ALR H2O2 inh 2.8, rRNA inh HTS OD600 -12.3 and rRNA inh HTS RFP -3.9.
Cc1cc(C)cc(NC(=O)C2CCN(S(=O)(=O)c3ccc4[nH]c(=O)ccc4c3)CC2)c1 was read as MLL AF4-AF9 inh 3.3, FGF22 binding inactive, E coli growth 0.808, rRNA inh HTS 9.5, HNF4A DNA FP 1.3, ALR H2O2 inh -12.5, rRNA inh HTS OD600 11.8 and rRNA inh HTS RFP -3.1.
Screening CCC1(c2ccccc2)NC(=O)N(Cc2ccc(C(=O)OC)cc2)C1=O (centres undefined) returned MLL AF4-AF9 inh 2.7, FGF22 binding inactive, E coli growth 0.684, Vif TR-FRET 2.6%, rRNA inh HTS 9.3, HNF4A DNA FP 0.2, ALR H2O2 inh -2.6, rRNA inh HTS OD600 14.2 and rRNA inh HTS RFP -3.0.
Screening CCN(CC(=O)Nc1c(F)cccc1F)C(=O)CCC(=O)c1ccc(C)cc1 returned MLL AF4-AF9 inh -10.2, E coli growth 0.654, Vif TR-FRET 0.0%, rRNA inh HTS 5.0, HNF4A DNA FP 3.2, ALR H2O2 inh -1.6, rRNA inh HTS OD600 11.9 and rRNA inh HTS RFP -0.5.
For COC(=O)c1cc(Cl)c(NC(=O)c2ccc(C(C)(C)C)cc2)cc1OC the results were E coli growth 0.719, Vif TR-FRET 11.9%, HNF4A DNA FP 1.1 and ALR H2O2 inh -10.4.
O=c1[nH]nc(N/N=C/c2ccc(Cl)cc2Cl)c(=O)[nH]1 was read as MLL AF4-AF9 inh -5.0, FGF22 binding inactive, Vif TR-FRET 5.3%, rRNA inh HTS 1.4, HNF4A DNA FP -0.3, ALR H2O2 inh 19.6, rRNA inh HTS OD600 6.3 and rRNA inh HTS RFP -1.6.

Continued, starting with the last 2 of the part before.
For COC(=O)c1cc(Cl)c(NC(=O)c2ccc(C(C)(C)C)cc2)cc1OC the results were E coli growth 0.719, Vif TR-FRET 11.9%, HNF4A DNA FP 1.1 and ALR H2O2 inh -10.4.
O=c1[nH]nc(N/N=C/c2ccc(Cl)cc2Cl)c(=O)[nH]1 was read as MLL AF4-AF9 inh -5.0, FGF22 binding inactive, Vif TR-FRET 5.3%, rRNA inh HTS 1.4, HNF4A DNA FP -0.3, ALR H2O2 inh 19.6, rRNA inh HTS OD600 6.3 and rRNA inh HTS RFP -1.6.
For O=C(c1ccco1)N1CCN(c2nc(-c3ccc(F)cc3)cs2)CC1 the results were E coli growth 0.692, Vif TR-FRET 27.5%, HNF4A DNA FP 4.5 and ALR H2O2 inh 13.2.
`C[C@H]1CN([C@@H](C)CO)C(=O)c2cc(NC(=O)Nc3ccc(C(F)(F)F)cc3)ccc2O[C@@H]1CN(C)Cc1ccc(-c2ccccc2)cc1` gave MLL AF4-AF9 inh -1.5, FGF22 binding inactive, rRNA inh HTS 9.0, rRNA inh HTS OD600 24.3 and rRNA inh HTS RFP -2.3.
Screening Cc1ccc(NC(=O)NCC(c2cccnc2)N2CCOCC2)cc1 (centres undefined) returned E coli growth 0.7, Vif TR-FRET 25.7%, HNF4A DNA FP -0.2 and ALR H2O2 inh -9.9.
`Cc1ccc(COC(=O)c2cc([N+](=O)[O-])ccc2N2CCOCC2)cc1` gave MLL AF4-AF9 inh 5.1, FGF22 binding inactive, rRNA inh HTS -3.5, HNF4A DNA FP -2.7, ALR H2O2 inh 5.5, rRNA inh HTS OD600 -1.8 and rRNA inh HTS RFP -2.3.
`CCC(=O)N(C)C[C@@H]1Oc2ncc(-c3ccccc3OC)cc2C(=O)N([C@@H](C)CO)C[C@H]1C` gave MLL AF4-AF9 inh -2.4, FGF22 binding inactive, rRNA inh HTS 0.5, rRNA inh HTS OD600 -0.4 and rRNA inh HTS RFP -2.1.
CC(C)CNC(=O)NC(=O)COc1ccc(C=O)cc1 was read as E coli growth 0.728, Vif TR-FRET 8.8%, HNF4A DNA FP 1.7 and ALR H2O2 inh -2.3.
Clc1cccc(Cl)c1CSc1cc2c(nn1)-c1ccccc1CC2 was read as E coli growth 0.718, Vif TR-FRET 27.5%, HNF4A DNA FP 1.5 and ALR H2O2 inh -1.3.
For Cc1noc(C)c1NC(=O)Nc1ccc2c(c1)CC(=O)N([C@H](C)CO)C[C@@H](C)[C@@H](CN(C)Cc1ccc(C(=O)O)cc1)O2 the results were MLL AF4-AF9 inh -2.7, FGF22 binding inactive, rRNA inh HTS 0.4, rRNA inh HTS OD600 6.8 and rRNA inh HTS RFP -0.7.
Screening O=C(Nc1ccccc1)Nc1snnc1C(=O)Nc1cccc(O)c1 returned MLL AF4-AF9 inh -2.3, E coli growth 0.707, Vif TR-FRET 13.2%, rRNA inh HTS -15.5, HNF4A DNA FP -2.9, rRNA inh HTS OD600 -12.7 and rRNA inh HTS RFP 3.6.
Screening NC(=O)c1ccc(OCC(F)(F)F)nc1 returned MLL AF4-AF9 inh -4.6, FGF22 binding inactive, E coli growth 0.657, Vif TR-FRET -12.4%, HNF4A DNA FP -0.6 and ALR H2O2 inh -21.9.
`COc1ccc(-c2nc(NC(=O)CSCCO)sc2C)cc1` gave MLL AF4-AF9 inh 1.1, FGF22 binding inactive, E coli growth 0.709, Vif TR-FRET -7.0%, rRNA inh HTS -3.3, HNF4A DNA FP 1.2, ALR H2O2 inh 98.1*, rRNA inh HTS OD600 -7.4 and rRNA inh HTS RFP -1.4.
`COc1ccc(CCNC(=O)CSc2nc3ccsc3c(=O)n2CC2CCC(C(=O)O)CC2)cc1OC` (centres undefined) gave MLL AF4-AF9 inh 0.2, FGF22 binding inactive, E coli growth 0.666, rRNA inh HTS 4.4, HNF4A DNA FP 3.6, ALR H2O2 inh 0.4, rRNA inh HTS OD600 11.2 and rRNA inh HTS RFP -1.7.
Screening O=C1NC[C@H](CCCCN2C[C@H](Cc3ccc(O)cc3)N(Cc3ccccc3)C(=O)C2=O)N(CCc2ccccc2)C1=O returned MLL AF4-AF9 inh 2.7, FGF22 binding inactive, rRNA inh HTS -6.9, HNF4A DNA FP 3.6, rRNA inh HTS OD600 -1.9 and rRNA inh HTS RFP 1.4.
Screening Cc1ccc(C(O)c2ncc(-c3ccc(Cl)cc3)[nH]2)cc1 (centres undefined) returned MLL AF4-AF9 inh -0.6, FGF22 binding inactive, rRNA inh HTS -2.8, HNF4A DNA FP 0.9, rRNA inh HTS OD600 -29.1 and rRNA inh HTS RFP -3.4.
`CN(c1ccccc1)C1CCCCC1NS(=O)(=O)c1ccc(Cl)cc1` (centres undefined) gave MLL AF4-AF9 inh 3.5, FGF22 binding inactive, E coli growth 0.695, Vif TR-FRET 1.4%, HNF4A DNA FP -3.2 and ALR H2O2 inh inconclusive.
Screening O=C(c1cc2cc3ccc(Cl)cc3nc2o1)N1CCCCCC1 returned E coli growth 0.661, HNF4A DNA FP 2.9 and ALR H2O2 inh -4.1.

Bioassay records as filed in PubChem.
